# Source: PubChem (several laboratories)
# HSP90 refold inh: blocks HSP90-mediated luciferase refolding in reticulocyte lysate; inhibition, % at 5.6 µM; 0.91% of 290,000 active; Rabbit reticulocyte lysate, luciferase refolding luminescence, 3 h;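 active means inhibition above the screen-wide mean plus 3 SD, computed separately per campaign, cut at about 16% in these data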;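 further: 0% = DMSO wells and 100% = 60 µM geldanamycin wells; inhibitors lower the luminescence because luciferase stays unfolded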
# HSF1 inh: HSF1 inhibition. NIH3T3-HGL HSE-luciferase, MG132-induced, luminescence 8 h; active compounds read low. activity change, negative = inhibition, % at 7.5 µM (by protocol). 0.77% of 300,000 active;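 active means more than half of replicate wells show activity change below -50%, luminescence cut by over half; inconclusive means some wells, but at most half, below -50%; inactive means no replicate well below -50%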;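 further: luciferase reports HSF-1 transcriptional activity via heat shock element; 0% = median of DMSO wells and -100% = zero luminescence signal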
# SKKanGAS inh: SKKanGAS growth inhibition; AID 1662; S. pyogenes SKKanGAS, kanamycin growth, BacTiter-Glo, 6 h; 1.3% of 300,000 active; inhibition, % at 7.5 µM;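 active means mean replicate score, as percent of positive control median, at least 50; inconclusive means mean below 50 but one replicate at or above 50; inactive means mean and every replicate below 50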;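 further: strain carries kanamycin resistance gene driven by streptokinase promoter and grows in 40 µg/ml kanamycin; loss of luminescence reflects streptokinase promoter inhibition or plain growth inhibition; 0% = median of DMSO wells and 100% = positive control at its reference dose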
# HSF1 activator: increases HSF-1 driven luciferase reporter signal. activation, % at 9 µM. AID 504408. NIH3T3-HGL HSF-1 luciferase reporter, MG132, 8 h; 100% = twice DMSO control signal. 1.7% of 300,000 active;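 active means mean replicate activation of at least 50% with a set share of replicates each reaching 50%; inconclusive means only one of those two conditions met; inactive means mean below 50% and too few replicates reaching it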;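 further: 0% = median of the neutral control wells and 100% = twice that signal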
# IEC-6 tox: counter-screen for KLF5 inhibitors: cytotoxicity in IEC-6 cells. AID 1825. inhibition, % at 5 µM. 0.78% of 290,000 active. IEC-6 cytotoxicity, luminescence viability; in the data active means inhibition above about 22%;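 further: 0% = plate median of test compound wells and 100% = cytotoxic reference compound wells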
# Platelet DG rel: platelet dense granule release activity; human platelet-rich plasma, SFLLRN dense granule ATP release, luminescence; inhibition, %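 (compounds screened at 7.5 µM in platelet-rich plasma)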; 0.22% of 300,000 active;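 active means mean replicate score, as percent of positive control, at or above 50; inconclusive means mean below 50 but at least one replicate at or above 50; inactive means mean and every replicate below 50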
# aSyn 5UTR inh: 5' untranslated region of α-synuclein, MLPCN primary screen. alpha-synuclein 5'UTR reporter, inhibitor activity. inhibition, % (tested at 7.5 µM). 0.82% of 300,000 active. AID 1813; in the data active means inhibition above about 60%; inconclusive means no clear call, values can overlap the other calls;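 further: H4 neuroglioblastoma cells stably carrying SNCA 5'UTR luciferase fusion; 0% = DMSO wells and 100% = positive control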
# KLF5 inh: suppresses KLF5 promoter-driven expression; DLD-1 KLF5 promoter-luciferase reporter, luminescence; inhibition, % at 5 µM; 0.23% of 290,000 active; AID 1700;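 active means inhibition above a per-plate limit of that plate's mean compound inhibition plus 3 SD, cut at about 60% in these data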;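 further: 0% = DMSO wells and 100% = LY294002 at 200 µM; higher means less KLF5 promoter-driven luciferase light; inactives centre near -14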
# AI-2 QS modul: modulators of Vibrio harveyi AI-2 quorum sensing system; activity change, % at 7.5 µM; Vibrio harveyi JMH597 AI-2 luminescence/OD600 ratio, 9 h; active compounds read low; strain lacks LuxN and CqsS sensors; 0 = neutral-control median; 0.4% of 300,000 active; in the data active means activity change below about -75%, passing the limit was not always enough; inconclusive means no clear call, values can overlap the other calls;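 further: luminescence divided by OD600 gain over 9 h not by final OD600 alone; inactives centre near 13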
# The depositor's hits bear a star; ? = inconclusive; . = not tested or not shown. The list is partial, so the mix of outcomes need not match the whole.
# The opening 19 entries as a preview:
SMILES,HSP90 refold inh,HSF1 inh,SKKanGAS inh,HSF1 activator,IEC-6 tox,Platelet DG rel,aSyn 5UTR inh,KLF5 inh,AI-2 QS modul
CCn1nc(NC(=O)c2cccnc2)c2cc3ccccc3nc21,2,-9,6,-11,-2,0,19,-17,13
Nc1ccc2oc3ncccc3c(=O)c2c1,0,-1,-8,-3,1,-6,-98,-63,38
O=C1CCc2nc3ccccc3c(=O)n2N1,4,-13,-1,-26,0,-1,10,-22,37
CCOC(=O)c1ccc(-n2c(=O)[nH]c3ccccc3c2=O)cc1,8,-9,-3,9,7,-2,-14,-3,8
COc1c2c(nc3ccccc13)OC(C(C)(O)CO)C2 (stereo unspecified),2,0,5,-5,0,2,37,-19,28
CC1(C)Cc2c(c(-c3ccccc3)nc3[nH][nH]c(=O)c23)CO1,1,4,2,-1,-1,-61,22,-22,-8
Cc1cccc(N(C)C(=S)Oc2ccc3ccccc3c2)c1,3,7,1,14,-4,-3,-13,-3,9
CN1CCC(=C2c3ccccc3C=Cc3ccccc32)CC1,5,-17,0,-10,-13,3,-24,-18,23
CC1=C(C#N)C(=O)OC(C)(C)C1,-3,2,-2,6,1,-2,-10,-13,23
COc1ccccc1C(=O)N1CCCC1(C#N)c1ccccc1 (stereo unspecified),-5,-4,-1,14,2,0,6,12,7
CN1CCN(c2nc(C(N)=O)cc(-c3ccccc3)n2)CC1,0,10,16,5,1,-3,-34,-10,7
COc1ccccc1N1CCN(C(=O)c2c(C)cc(=O)oc2C)CC1,2,-13,-5,-3,0,4,10,-9,15
Cc1cccc(N2C(=O)CC(N3CCN(Cc4ccc(Cl)cc4)CC3)C2=O)c1 (stereo unspecified),-2,-8,8,-20,2,5,-1,-19,2
O/N=C1\CCc2cc(Cl)ccc21,-1,-8,3,-14,-1,5,7,-31,19
C=CCN(C(=O)CCC(=O)O)C1CC(=O)N(c2ccc(OC)cc2)C1=O (stereo unspecified),1,11,-4,36,-2,?,23,-37,22
FC(F)(F)c1cccc(-n2cccc2/C=N/n2cnnc2)c1,1,12,-3,-9,1,0,15,-19,-65
CCO/C(C)=N/n1c2nc3ccccc3nc2c2c(=O)n(CC(C)C)c(C)nc21,-3,5,9,14,-4,2,-16,-24,10
O=c1c(C=NCCCn2ccnc2)c(-c2ccccc2)[nH]n1-c1nc2ccccc2s1,4,-5,6,19,0,-9,-26,-12,18
COc1ccc(/C(O)=C2/C(=O)C(=O)N(CCCN(C)C)C2c2ccccc2)cc1OC (stereo unspecified),-3,-11,10,2,3,23,-87,-3,10

# The list itself, from the first entry:
SMILES,HSP90 refold inh,HSF1 inh,SKKanGAS inh,HSF1 activator,IEC-6 tox,Platelet DG rel,aSyn 5UTR inh,KLF5 inh,AI-2 QS modul
CCn1nc(NC(=O)c2cccnc2)c2cc3ccccc3nc21,2,-9,6,-11,-2,0,19,-17,13
Nc1ccc2oc3ncccc3c(=O)c2c1,0,-1,-8,-3,1,-6,-98,-63,38
O=C1CCc2nc3ccccc3c(=O)n2N1,4,-13,-1,-26,0,-1,10,-22,37
CCOC(=O)c1ccc(-n2c(=O)[nH]c3ccccc3c2=O)cc1,8,-9,-3,9,7,-2,-14,-3,8
COc1c2c(nc3ccccc13)OC(C(C)(O)CO)C2 (stereo unspecified),2,0,5,-5,0,2,37,-19,28
CC1(C)Cc2c(c(-c3ccccc3)nc3[nH][nH]c(=O)c23)CO1,1,4,2,-1,-1,-61,22,-22,-8
Cc1cccc(N(C)C(=S)Oc2ccc3ccccc3c2)c1,3,7,1,14,-4,-3,-13,-3,9
CN1CCC(=C2c3ccccc3C=Cc3ccccc32)CC1,5,-17,0,-10,-13,3,-24,-18,23
CC1=C(C#N)C(=O)OC(C)(C)C1,-3,2,-2,6,1,-2,-10,-13,23
COc1ccccc1C(=O)N1CCCC1(C#N)c1ccccc1 (stereo unspecified),-5,-4,-1,14,2,0,6,12,7
CN1CCN(c2nc(C(N)=O)cc(-c3ccccc3)n2)CC1,0,10,16,5,1,-3,-34,-10,7
COc1ccccc1N1CCN(C(=O)c2c(C)cc(=O)oc2C)CC1,2,-13,-5,-3,0,4,10,-9,15
Cc1cccc(N2C(=O)CC(N3CCN(Cc4ccc(Cl)cc4)CC3)C2=O)c1 (stereo unspecified),-2,-8,8,-20,2,5,-1,-19,2
O/N=C1\CCc2cc(Cl)ccc21,-1,-8,3,-14,-1,5,7,-31,19
C=CCN(C(=O)CCC(=O)O)C1CC(=O)N(c2ccc(OC)cc2)C1=O (stereo unspecified),1,11,-4,36,-2,?,23,-37,22
FC(F)(F)c1cccc(-n2cccc2/C=N/n2cnnc2)c1,1,12,-3,-9,1,0,15,-19,-65
CCO/C(C)=N/n1c2nc3ccccc3nc2c2c(=O)n(CC(C)C)c(C)nc21,-3,5,9,14,-4,2,-16,-24,10
O=c1c(C=NCCCn2ccnc2)c(-c2ccccc2)[nH]n1-c1nc2ccccc2s1,4,-5,6,19,0,-9,-26,-12,18
COc1ccc(/C(O)=C2/C(=O)C(=O)N(CCCN(C)C)C2c2ccccc2)cc1OC (stereo unspecified),-3,-11,10,2,3,23,-87,-3,10
CC(C)C[C@H](NC(=O)[C@@H](O)[C@H](N)Cc1ccccc1)C(=O)O,.,-2,3,-3,.,3,0,.,24
COCCOC(=O)c1c(C)nc(SCC(=O)Nc2ccc(C)cc2)c(C#N)c1-c1ccco1,-1,21,67*,39,-3,0,18,-14,33
O=C(Nc1ccccn1)NC(C(F)(F)F)C(F)(F)F,6,-8,3,5,1,-2,10,-21,-13
CCOC(=O)C1CSc2[nH]c(=O)sc2C1c1ccccc1 (stereo unspecified),6,-12,2,-33,8,6,7,-8,9
COCCCNc1nc(-c2ccncc2)nc2ccccc12,3,-3,-1,-5,6,4,1,-5,-3
Cc1ccc(C(=O)O[C@H](C(=O)O)[C@H](OC(=O)c2ccc(C)cc2)C(=O)O)cc1,5,-5,-1,1,-5,6,-19,-34,12
COc1cc(N2C(=O)CSC23C(=O)Nc2ccccc23)cc(OC)c1OC (stereo unspecified),-2,-7,0,-19,-1,.,3,-4,14
O=C(c1ccc(F)cc1)N1CCC(N2CCCCCC2)CC1,-1,-5,-5,11,-1,7,11,8,16
NC12CC3CC(CC(C3)C1)C2,1,5,-1,6,8,-2,-4,-4,17
O=C(OCCN1CCOCC1)c1ccc(OCCN2CCOCC2)cc1,0,5,9,3,2,0,7,-41,24
C[C@]12CC[C@@H]3c4ccc(O)cc4CC[C@H]3[C@@H]1CC[C@@H]2O,2,-37,1,-51,-5,-1,11,0,6
COc1ccccc1N(O)C1CC(=O)N(c2ccc(F)cc2)C1=O (stereo unspecified),1,3,2,28,-1,8,-45,-2,18
Cc1ccc(C(=O)C2C(c3cccs3)NC(=O)NC2(O)C(F)(F)F)cc1 (stereo unspecified),-1,10,-8,-5,0,-4,-10,-27,38
O=C(/C=C/c1ccc(O)c(O)c1)O[C@@H]1C[C@](O)(C(=O)O)C[C@@H](O)[C@H]1O,.,-7,-6,4,.,1,20,.,7
O=C(c1coc(=O)c(Br)c1)N1CCOCC1,3,4,-14,-4,4,-5,-10,7,0
CN1C(c2ccccc2)CC(=NO)CC1c1ccccc1 (stereo unspecified),0,12,4,14,0,-1,10,-1,-13
CC(=O)OC(C)C[N+](C)(C)C (stereo unspecified),-1,-3,-3,-12,-2,0,-10,-1,2
CCOc1ccc2c(c1)n([O-])c1c([n+]2=O)CCCC1,-2,-13,1,-22,0,-6,-10,-3,3
CCCCN(C(=O)CCC(=O)O)C1CC(=O)N(c2ccc(OCCC)cc2)C1=O (stereo unspecified),-2,2,-15,22,-6,-11,-1,-16,24
CN1C2C=C3C(C#N)=C(N)C(C#N)(C#N)[C@@H](c4cccs4)C3C1CC2 (stereo partly specified),8,-5,1,11,4,2,12,-31,5
CC(=O)OC[C@H]1O[C@H](C/C=N/OC[C@@H](O)[C@H]2O[C@@H]3OC(C)(C)O[C@@H]3[C@H]2O)C=C[C@@H]1OC(C)=O,-2,-8,11,-6,-2,1,13,-1,9
COc1ccc(OC)c(C2/C(=C(/O)c3cnn(-c4ccccc4)c3C)C(=O)C(=O)N2CCN(C)C)c1 (stereo unspecified),.,-2,-11,-11,.,6,-2,.,4
Cn1c(=O)oc2cc(C(=O)c3ccccc3)ccc21,1,-4,-5,-11,8,-2,-10,-8,25
O=C(Nn1cnnc1)C(c1ccccc1)c1ccccc1,2,-2,3,-4,2,-2,7,-42,31
Cc1cc(C)n(C(=O)CSc2nc3ccccc3o2)n1,-1,1,0,19,-2,22,-15,19,12
CCCCCCCCCCCCC/C=C/[C@@H](O)[C@@H](N)CO,.,1,94*,1,.,0,-25,.,23
C=CCN1C(=O)CC(C(=O)NC)SC1=Nc1ccc(C(=O)OCC)cc1 (stereo unspecified),-1,-13,5,-4,-2,0,14,-23,7
COc1ccc(OC)c2c1CCC2=O,0,4,-6,7,-3,-1,-3,-7,7
COc1cccc(CNc2ccc(Br)cn2)c1O,8,181,1,272*,0,0,-24,-71,25
CSc1nc2[nH]c3c(c2c2nncn12)CC(C)(C)OC3,-1,-17,-1,-23,4,10,-8,-6,11
CCCC(C(=O)OCCN(CC)CC)(c1ccccc1)c1ccccc1,.,0,-4,7,.,3,-17,.,-4
Cc1ccc(/C=N/n2nnnc2N)o1,3,12,6,21,-6,2,-5,-24,14
COc1ccc(-n2ncc3c(Nc4cccc(C)c4)ncnc32)cc1,-1,19,14,17,3,-5,-202,-16,-16
CCOC(=O)N1CCN(c2ncnc3c2cnn3-c2ccc(OC)cc2)CC1,-5,-1,6,21,5,1,-52,-39,4
Cc1cc(N2C(=O)C(=O)/C(=C(/O)c3ccc(F)cc3)C2c2ccc(F)cc2)no1 (stereo unspecified),-1,7,14,-8,2,2,-18,-24,33
Clc1ccc(-c2nnc3sc(Cc4cccs4)nn23)c(Cl)c1,1,-3,-24,-4,-1,2,4,-19,13
CN1C(=O)N(c2ccccc2)C(Nc2nncs2)C1(C)C (stereo unspecified),2,1,-1,1,1,3,15,-9,7

# Three entries already listed, sorted by SMILES length, falling.
SMILES,HSP90 refold inh,HSF1 inh,SKKanGAS inh,HSF1 activator,IEC-6 tox,Platelet DG rel,aSyn 5UTR inh,KLF5 inh,AI-2 QS modul
COc1ccc(-n2ncc3c(Nc4cccc(C)c4)ncnc32)cc1,-1,19,14,17,3,-5,-202,-16,-16
Cc1ccc(/C=N/n2nnnc2N)o1,3,12,6,21,-6,2,-5,-24,14
COc1ccc(OC)c2c1CCC2=O,0,4,-6,7,-3,-1,-3,-7,7
